Arbovirus anti: arbovirus infection inhibition. inhibition, % at 10 µM. arbovirus infection cell-based antiviral screen. actives 0.37% (n = 200,000);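 active = inhibition from about 30%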;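 also: bluetongue infection of BSR cells; cell survival read as ATP light after 72 h; 0% = infected wells without compound and 100% = uninfected wells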
YopH inh: YopH (Yersinia) phosphatase inhibition. fluorescence Ex485/Em525. inhibition, %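 (about 10 µM by stock and volumes)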. actives 0.16% (n = 140,000). AID 898;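 active = inhibition of 50% or more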;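 also: controls were vehicle for no effect and minimum signal wells for full effect; inactives centre near -20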
RecA splice inh: Mtb RecA intein splicing inhibition | P9WHJ3 | actives 0.75% (n = 290,000) | cell-free RecA intein splicing, fluorescence | inhibition, %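 (about 9 µM by stock and volumes)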; in the data active = inhibition above about 30%; inconclusive = no clear call, values can overlap the other calls;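 also: 0% = vehicle wells and 100% = reference inhibitor control wells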
Target sequence (P9WHJ3 whole entry, looked up, canonical isoform): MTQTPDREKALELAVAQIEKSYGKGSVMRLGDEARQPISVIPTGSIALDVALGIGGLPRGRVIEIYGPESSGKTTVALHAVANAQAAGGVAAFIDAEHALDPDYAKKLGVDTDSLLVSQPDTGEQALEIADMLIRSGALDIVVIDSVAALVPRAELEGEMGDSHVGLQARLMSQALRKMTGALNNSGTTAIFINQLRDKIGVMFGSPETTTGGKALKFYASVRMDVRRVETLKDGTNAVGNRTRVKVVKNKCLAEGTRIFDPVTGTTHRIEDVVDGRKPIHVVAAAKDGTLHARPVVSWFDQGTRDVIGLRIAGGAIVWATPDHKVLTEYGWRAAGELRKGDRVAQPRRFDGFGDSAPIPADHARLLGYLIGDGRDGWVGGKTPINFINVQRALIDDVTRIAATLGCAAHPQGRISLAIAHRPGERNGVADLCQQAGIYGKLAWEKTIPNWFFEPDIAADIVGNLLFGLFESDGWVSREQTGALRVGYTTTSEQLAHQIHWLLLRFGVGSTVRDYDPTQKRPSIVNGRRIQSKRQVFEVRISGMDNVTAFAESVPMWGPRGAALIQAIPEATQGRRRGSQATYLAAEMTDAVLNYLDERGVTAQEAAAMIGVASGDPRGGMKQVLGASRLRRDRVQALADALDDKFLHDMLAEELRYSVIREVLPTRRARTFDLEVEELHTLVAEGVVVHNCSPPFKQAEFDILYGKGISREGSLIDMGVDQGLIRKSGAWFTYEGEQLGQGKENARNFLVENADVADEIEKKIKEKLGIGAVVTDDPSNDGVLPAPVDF
Mtb betalactam: beta-lactam sensitization of Mtb H37Rv. M. tuberculosis H37Rv growth with meropenem, percent inhibition; hits of this screen are not shown here. inhibition, % at 25 µM. actives 0.27% (n = 330,000). AID 434955;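 active = about 74% or more and at least 40 points above the plate without the antibiotic, then above 30% in a dose series; inconclusive = first-round hits that could not be retested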;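 also: growth measured after seven days incubation then overnight dye step; 0% = bacteria only wells and 100% = bacteria with antibiotic; twin plates without the antibiotic show which effects depend on it; some results filed as inactive read as strong as hits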
Mtb H37Rv: M. tuberculosis H37Rv growth inhibitors, H37Rv strain (AID 1626) | M. tuberculosis H37Rv growth inhibition; higher % means a stronger effect | inhibition, % at 10 µM, or IC50 in µM where a hit was titrated | actives 0.95% (n = 220,000);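 active = confirmed in a dose series; inconclusive = inhibition above 80% but not taken into the dose series; inactive = below 80% or under 30% at every dose of the series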;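 also: bacteria incubated seven days before Alamar blue readout; 0% = bacteria only wells and 100% = bacteria with antibiotic wells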
Arbovirus anti repeat: also measured in Arbovirus anti; calls as there; inhibition, %; measured here: 10K subset replicate screen; many hits read low in the repeat;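 first of two repeat runs on a subset; 0% = infected and 100% = uninfected wells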
Starred values were filed as active, the others as inactive; u = inconclusive; x = not tested or not shown.

SMILES	Arbovirus anti	YopH inh	RecA splice inh	Mtb betalactam	Mtb H37Rv	others
COc1cccc(CNC(=O)CCC2CCCN(C(=O)c3cc4ccccc4o3)C2)c1 (stereo not given)	-4	x	-1.1	-3	7%
Cc1nc2sc3c(c2c(=O)o1)CCC3	10	-38	-15	2	2%
COc1ccccc1N1CCN(C2CCCN(C(=O)c3snnc3C)C2)CC1 (stereo not given)	x	x	-6.5	-4	x
Cc1ccc(S(=O)(=O)c2ccc(C)cc2)cc1	5	-13	1.2	10	6%
Cc1ccccc1-c1nc(CS(=O)(=O)CC(=O)NCCN2CCCC2)c(C)o1	x	x	-1.9	-4	x
CCN(CC)CCN(C(=O)c1ccc(CN2CCCCC2)o1)C(C(=O)NC1CCCCC1)c1ccc(F)cc1 (stereo not given)	17	x	0.2	-1	-11%
COc1ccccc1C(=O)NCCC(=O)Nc1ncccc1O	x	x	0.6	-12	x
O=C(CSCCO)Nc1cccc([N+](=O)[O-])c1	1	-5	-0.4	-4	2%
COc1cccc2cc(/C(=N/O)c3ccc(Br)cc3)oc12	-6	x	6.8	-4	12%
Nc1ccc(Cl)c(S(=O)(=O)Nc2ccccc2Cl)c1	15	x	-3.5	-9	-5%
O=C(Nc1cccc(O)c1)c1cccc(S(=O)(=O)N2CCCC2)c1	-3	-25	0.6	-10	-5%
CCCSc1nc(C)nc2c1c(=O)n(C)c(=O)n2C	-2	-22	x	x	-8%
O=C(O)CCCN1C(=O)C(=O)/C(=C(/O)c2ccc(Cl)cc2)C1c1ccccc1 (stereo not given)	x	x	0.6	-6	-10%
CCOC(=O)C(CC(=O)O)N1CCCCC1 (stereo not given)	0	1	-0.4	1	5%
COc1cc(OC)c(/C=N/NC(=O)c2ccc(NC(C)=O)cc2)cc1Br	18	x	2.8	x	-5%
Cc1[nH]c2ccccc2c1C(=O)CSc1nc2ccccc2c(=O)n1CCCN1CCOCC1	-10	-5	1.2	5	12%
CC(=O)c1cccc(NC(=S)N2CCN(CCN3C(=O)c4cccc5cccc(c45)C3=O)CC2)c1	14	x	-1.5	-8	-14%
O=[N+]([O-])c1ccc(OCc2nnc(-c3ccccc3)o2)cc1	5	x	1.1	0	7%
Cn1cnnc1SCC(=O)Nc1ccc(S(N)(=O)=O)cc1	x	x	2.1	-26	x
Cc1cc(C)c(S(=O)(=O)N2CCN(C(=O)C(C)Cn3nc(C)nc3C)CC2)c(C)c1 (stereo not given)	x	x	-2.2	0	x
COc1cccc(S(=O)(=O)NCc2ccc3c(c2)OCO3)c1	-2	3	2.5	-4	14%
O=C(NCC1CCCO1)c1ccc(/C=N/O)nc1 (stereo not given)	0	-10	0.6	3	4%
CCOC(=O)C1CCN(C(=O)c2ccc3c(c2)C(=O)N(c2ccccc2C)C3=O)CC1	x	x	-0.9	1	x
CC(C)COC(=O)C1C2C=CC3(CN(C4CCCC4)C(=O)C13)O2 (stereo not given)	-3	-35	-1.3	-7	7%	Arbovirus anti repeat=0
CCOC(=O)c1c(C)[nH]c(C)c1C(=O)CSc1nc2ccccc2[nH]1	7	-23	2.6	3	1%
O=C(Nc1ccc([N+](=O)[O-])cc1)C1CC1(c1ccccc1)c1ccccc1 (stereo not given)	7	-11	0.6	4	4%
COc1ccccc1NC(=O)c1sc2nc(-c3ccco3)ccc2c1N	-8	-42	-45	1	-1%
Cc1ccc(NC(=O)COC(=O)CNC(=O)c2ccc(C)s2)cc1	-2	x	8.7	-3	-8%
Cc1cc(C)cc(OCC(=O)Nc2cc(C)on2)c1	2	x	2.9	15	-8%
COc1ccc(CCNCc2ccc(SC)cc2)cc1	7	-27	2.2	4	-14%
O=C1CCCC2=C1C(c1ccsc1)CC(=O)N2c1ccccc1 (stereo not given)	4	6	-2.0	8	-4%
CCC1=NN2C(=N)/C(=C/c3cc(C)n(-c4ccccc4)c3C)C(=O)N=C2S1	x	x	-0.4	-8	-6%
Cc1ccc(C(=O)Nc2cccc3ncccc23)cc1[N+](=O)[O-]	3	x	0.8	-5	2%
COc1cc(/C=N/NC(=O)CC2C(=O)NN=C2C)ccc1O (stereo not given)	x	x	-3.7	-7	-4%
Cc1cc(/C=C2\C(=O)NC(=O)N(c3cccc(Br)c3)C2=O)c(C)n1C	2	-6	-6.1	-2	-5%
Cc1cccc(N2CCN(S(=O)(=O)c3cc4c(cc3Cl)NC(=O)CO4)CC2)c1C	x	x	1.5	-3	x
Cc1ccc(S(=O)(=O)NCc2ccccc2)cc1C(=O)N(C)Cc1ccc(F)cc1	x	x	4.5	-8	x
C=CCn1cc(Cl)c(=O)n(CC=C)c1=O	5	-1	-0.5	6	0%
Cn1cc(NC(=O)OCc2ccc(Cl)cc2)c(C(F)(F)F)n1	-2	x	-0.6	-8	4%
CC(C)c1ccccc1NC(=O)CNC(C)c1ccc(F)cc1 (stereo not given)	5	x	0.7	1	0%
O=C1CCCc2c1[nH]c1c(Br)cccc21	13	-6	1.3	53	5%	Arbovirus anti repeat=16
CCOC(=O)C(CCCCC(NC(C)=O)(C(=O)OCC)C(=O)OCC)(NC(C)=O)C(=O)OCC	x	x	-0.6	3	-1%
CCCSP1(=S)NCCCO1 (stereo not given)	-6	-35	1.3	-10	-5%
Cn1c(CCN2CCCCC2)nc2cc(NC(=O)NC3CCCCC3)ccc21	-1	x	1.5	-1	-9%
Cc1cc(C)nc(N2Cc3ccccc3C2=N)n1	7	x	x	-4	5%
COc1ccc(OC)c(S(=O)(=O)Nc2ccc(OCC(=O)O)cc2)c1	2	-54	5.9	-8	-2%	Arbovirus anti repeat=0
CC(C)(C)NC(=O)Cn1nnc(-c2ccccc2NC(=O)c2ccco2)n1	6	-17	-1.0	-2	-1%
CC(C)(C)C(=O)Nc1ccc(NC(=O)C(C)(C)C)cc1	x	x	-1.3	-11	-3%
Cc1ccc(-n2ncc3c2CCCC3NC(=O)c2ccoc2)cc1C (stereo not given)	x	x	-1.7	-3	x
Cc1nc(COc2cccc(Cl)c2)sc1C(=O)/C=C/N(C)C	x	x	6.1	-5	0%
Cn1cc(/C=N/NC(N)=S)c2ccccc21	x	x	-3.4	96	51%
Cc1ccc(SCCC(=O)OCC(=O)NCC2CCCCC2)cc1	4	x	0.5	-1	11%
O=C(c1cn(CC2CCCCC2)nn1)N1CCN(c2ccc(F)cc2)CC1	x	x	2.1	78	x
COC(=O)CCCC1=CC2=CC(=O)C(C)(OC(=O)c3cccs3)C(=O)C2=CN1CC(C)C (stereo not given)	x	x	5.2	-4	-2%
O=C1CC(N2CCSCC2)C(=O)N1c1ccc(Br)cc1 (stereo not given)	x	x	4.6	-4	-9%
Cc1cc(CNC(=O)C2CCC(=O)N(CCc3cccc(F)c3)C2)nn1C (stereo not given)	x	x	7.0	-9	x
Cc1ccc(S(=O)(=O)N2CCN(S(=O)(=O)N(C)C)CC2)cc1	5	-28	-2.8	-1	0%
N#Cc1nc(-c2ccco2)oc1NCc1ccco1	15	-28	0.8	0	-3%
CC(=O)c1ccc(S(=O)(=O)N2CCCC(N(C)CCc3ccccn3)C2)cc1 (stereo not given)	x	x	-3.0	-6	x
COc1ccc(C)cc1-n1[nH]nnc1=S	-1	x	1.8	2	-5%

Nothing new here: an excerpt of the list.
SMILES	Arbovirus anti	YopH inh	RecA splice inh	Mtb betalactam	Mtb H37Rv	others
Cc1nc(COc2cccc(Cl)c2)sc1C(=O)/C=C/N(C)C	x	x	6.1	-5	0%
Cn1cc(/C=N/NC(N)=S)c2ccccc21	x	x	-3.4	96	51%
Cc1ccc(SCCC(=O)OCC(=O)NCC2CCCCC2)cc1	4	x	0.5	-1	11%

Other compounds:
SMILES	Arbovirus anti	YopH inh	RecA splice inh	Mtb betalactam	Mtb H37Rv	others
CCC1(C)Cc2c(sc3nnn(CC(=O)Nc4ccccc4C)c(=O)c23)CO1 (stereo not given)	14	-38	-2.8	-1	-5%
Cc1cc(N2CCCCCC2)nc2ccc(F)cc12	x	-20	-0.9	12	4%
Cn1ccsc1=NC(=O)c1ccc(CS(C)(=O)=O)cc1	x	x	-2.9	-3	x
FC(F)(F)c1cccc(NC(=S)Nc2cccc(NC(=S)Nc3cccc(C(F)(F)F)c3)n2)c1	x	x	12	89	u
Oc1ccccc1CNc1nc2ccccc2n1CCN1CCCCC1	12	-37	3.0	1	3%	Arbovirus anti repeat=15
O=C(NCCNC(=O)c1ccco1)c1ccco1	x	x	-1.3	-5	x
COc1ccc(C)cc1S(=O)(=O)NCC(c1ccco1)N1CCc2ccccc2C1 (stereo not given)	x	x	9.9	-16	x
O=C(CSCc1nc2ccccc2[nH]1)N1CCN(c2cccc(Cl)c2)CC1	14	-20	-0.8	1	-8%
Cc1nn(-c2ccccc2)c(C)c1/C=N/NC(=O)c1ccc(F)cc1	x	x	1.4	8	x
Cc1c(OCC(=O)NC(Cc2ccc(Cl)cc2)C(=O)O)ccc2c(-c3ccccc3)cc(=O)oc12 (stereo not given)	x	x	2.0	-4	x
Cc1cccc2c1N(N=O)CCC2	-7	-31	-1.1	-4	3%
COc1ccc(Cl)cc1N1C(=NC(=O)C2CCCCC2)SC2CS(=O)(=O)CC21 (stereo not given)	x	x	0.0	4	x
CC(C)Oc1ccc(N2CC(C(=O)Nc3ccc4c(c3)OCO4)CC2=O)cc1 (stereo not given)	-1	-4	1.1	-5	0%	Arbovirus anti repeat=-6
Cc1cc(C)nc(NS(=O)(=O)c2ccc(NC(=O)c3cc(=O)c4ccccc4o3)cc2)n1	x	x	-5.4	1	x
CCC(SCC(=O)OC)C(=O)Nc1nnc(C(C)C)s1 (stereo not given)	6	-9	1.0	-1	2%	Arbovirus anti repeat=0
Cc1cc(NC(=O)CS(=O)(=O)c2cn(Cc3cccc(F)c3)c3ccccc23)no1	5	-6	11	10	x	Arbovirus anti repeat=-1
CCC(=O)Nc1cc(C)c(NC(=O)CCc2ccccc2)cn1	1	-40	-8.1	-1	5%
Cc1ccc(NC(=S)NNc2ncc(C(F)(F)F)cc2Cl)c(C)c1	-11	-11	-5.1	-2	-4%
N#C/C(=N\Nc1ccc(Cl)cc1)C(=O)c1ccccc1	-20	-11	6.7	-3	3%
COC(=O)c1cc(S(=O)(=O)N2CCN(c3cccc(C)c3C)CC2)c[nH]1	x	x	6.5	0	x
Nc1cc(=O)[nH]c(SCC(=O)Nc2cccc(Cl)c2)n1	-2	-13	-2.7	-2	0%
COc1cc(OC)c2ccc(=O)oc2c1C(CCN1CCCCC1)c1ccc(N(C)C)cc1 (stereo not given)	x	x	-1.5	-7	-16%
CCCOc1ccc(/C=N\NC(=O)CCc2n[nH]c(=O)[nH]c2=O)cc1OC	8	x	-0.7	-3	-4%
CCc1cc(-c2nnc(SCC(=O)NC3CC3)n2C)cs1	x	x	-1.5	-5	x

The last 5 entries of the part above open the next one.
SMILES	Arbovirus anti	YopH inh	RecA splice inh	Mtb betalactam	Mtb H37Rv	others
COC(=O)c1cc(S(=O)(=O)N2CCN(c3cccc(C)c3C)CC2)c[nH]1	x	x	6.5	0	x
Nc1cc(=O)[nH]c(SCC(=O)Nc2cccc(Cl)c2)n1	-2	-13	-2.7	-2	0%
COc1cc(OC)c2ccc(=O)oc2c1C(CCN1CCCCC1)c1ccc(N(C)C)cc1 (stereo not given)	x	x	-1.5	-7	-16%
CCCOc1ccc(/C=N\NC(=O)CCc2n[nH]c(=O)[nH]c2=O)cc1OC	8	x	-0.7	-3	-4%
CCc1cc(-c2nnc(SCC(=O)NC3CC3)n2C)cs1	x	x	-1.5	-5	x
COc1ccc(NS(=O)(=O)c2cccc(C(=O)NCCCn3ccnc3)c2)cc1	x	x	-6.1	-11	x
COc1ccc(-c2onc(C)c2C)cc1S(=O)(=O)NCCc1ccco1	x	x	2.3	-2	x
CCc1ccc(NC2=NCC(c3ccccc3)S2)cc1 (stereo not given)	-11	x	18	89	57%
Brc1ccc(-c2cnc(-c3cccs3)o2)cc1	13	-57	-0.8	-4	-4%
CCC(C)Nc1nc(OCC(F)(F)F)nc(OCC(F)(F)F)n1 (stereo not given)	3	-37	-2.2	-1	3%
CCCCCC1CC(/C(C)=N/NC(N)=O)OC1=O (stereo not given)	7	-23	-1.6	-6	0%
Cc1ccc2c(c1)cc(CN(Cc1ccco1)C(=O)COc1ccccc1)c1nnnn12	3	-7	-2.2	1	-11%
Cc1cc2nc(N3CCN(C(=O)c4cccs4)CC3)sc2cc1C	x	x	-0.3	-3	x
CCCCCC(=O)NNC(=O)Cc1ccc([N+](=O)[O-])cc1	3	x	0.8	-5	0%
COc1ccc(-c2cc(C(=O)Nc3ccc(C)cc3)no2)cc1	1	-15	-0.4	5	11%
COc1ccc(S(=O)(=O)N2CCCC2)c2ccccc12	x	x	1.4	2	x
O=C(NCc1ccncc1)C(=O)NCC(c1ccccc1)c1ccccc1	1	-25	2.0	-8	1%
COc1ccc(C(C(=O)NC2CCCCC2)N(C(=O)c2snc(C(N)=O)c2N)c2ccc(OC)cc2OC)cc1 (stereo not given)	x	x	6.8	28	x

These rows are one share of the data; rates above refer to the full screens.
